# VACV mCherry inh: inhibitors of vaccinia virus infection (mCherry reporter signal). Vaccinia virus mCherry reporter infection, fluorescence; about a quarter of the inactives have no number. Potency, µM (highest dose often 36.5 µM), for inactives: top-dose activity change, negative = inhibition, hits mostly inhibitors. 310,000 tested, 0.63% active; active = well fitted inhibition curve with a large enough effect; inconclusive = small, poorly fitted or top-dose-only effect; inactive = no such curve, though single readings can be large or run the other way; tested in A549 cells; further: nearly all actives have a fitted effect of over 35% in size; inactives centre near -10
# VACV Venus inh: vaccinia inhibition (Venus reporter); Vaccinia virus Venus reporter expression, fluorescence; Potency, µM (titrated, usually from 36.5 µM), inactives show at the top dose activity change, negative = inhibition, actives largely listed as inhibitors; 330,000 tested, 0.46% active; AID 720580; active means well fitted inhibition curve with a large enough effect; inconclusive means small, poorly fitted or top-dose-only effect; inactive means no such curve, though single readings can be large or run the other way; tested in A549 cells; further: nearly all actives have a fitted effect of over 30% in size; inactives centre near -10
# Numbers without * were called inactive; i = inactive; ? = inconclusive; nt = not tested or not shown; & = joins results of further samples; [ ] = remark or other dose. On the % scale 0 is the no-effect control and ±100 the full control effect; potency means the concentration at half of the fitted maximal effect. Compounds as they come; any-hit rate near 0.87%.
mol	VACV mCherry inh	VACV Venus inh
COc1ccc(CN2CCc3c(c(=O)n4ncc(C(=O)N5CCN(c6ccccc6F)CC5)c4n3C)C2)cc1	-6.9%	-13.2%
Cc1cn([C@H]2C[C@H](O)[C@@H](CCC(=O)NCCCn3ccnc3)O2)c(=O)[nH]c1=O	-14.3%	-1.0%
Cc1ccc(N2CCN(C(=O)c3ccccc3NC(=O)C3CC=CCC3C(=O)O)CC2)cc1 (stereo not given)	nt	-3.8%
COc1cccc(C2SCC(=O)N2c2ccc(C)cc2)c1OC (stereo not given)	-14.6%	-6.9%
NS(=O)(=O)c1cccc2c1c([N+](=O)[O-])cc1nc(O)c(O)nc12	9.5%	22.8%
COC(=O)c1c(-c2ccccc2)csc1NC(=O)CSc1ncnc2sc(C)c(C)c12	nt	?
CC1=C(C(=O)OCC2CCCO2)C(c2ccc(Cl)cc2)NC(=O)N1 (stereo not given)	-4.9%	-1.7%
COc1cc(S(=O)(=O)N2CCOCC2)ccc1NC(=O)COC(=O)COc1ccccc1	-8.8%	0.0%
Cc1ccc2c(=O)c(C(=O)c3ccc(F)cc3)cn(CC(=O)NCCc3ccccc3)c2n1	-14.8%	5.8%
CS(=O)(=O)N(CC(=O)Nc1ccc(F)cc1F)C1CCCCC1	-11.7%	-12.3%
COc1ccc(OC)c(C2/C(=C(\O)c3ccc4c(c3)OCCO4)C(=O)C(=O)N2CC2CCCO2)c1 (stereo not given)	-3.3%	-11.3%
COc1cc(-c2nc(CN3CCCN(C(=O)c4ccco4)CC3)c(C)o2)ccc1F	-20.0%	-14.1%
C=C1CCN([C@@H](Cc2ccccc2)C(=O)Nc2ccc(OC)cc2)S(=O)(=O)c2ccccc21	?	-22.6%
COc1cccc(N2CC(NC(=O)COc3ccccc3F)CC2=O)c1 (stereo not given)	-9.2%[7.34 µM]	-1.7%[7.34 µM]
O=C(NCc1cccs1)c1ccc2sc(C3=C[C@@H](O)[C@@H](O)[C@@H](CO)O3)nc2c1	i	16.3%
COc1ccc(NC(=O)CSc2ccc3c(c2)OCCO3)cc1OC	nt	-19.3%
O=c1c2c3c(sc2n(Cc2cc(=O)n4ccccc4n2)c(=O)n1-c1ccc(Cl)cc1)CCC3	-21.1%	-12.4%
COc1ccccc1OCC(=O)NCC(c1ccc(Cl)cc1)N1CCOCC1 (stereo not given)	-17.3%	-16.7%
CCc1cc2c(s1)N(CC(=O)OC)C(=O)CN=C2c1ccccc1OC	-19.1%	13.2%
COc1ccc(N2CCN(c3c(S(=O)(=O)c4ccccc4)cnc4ccc(OC)cc34)CC2)cc1	i	-19.3%
O=C(CSc1ncnc2sccc12)Nc1ccccc1	i	-18.2%
CCOC(=O)c1c(NC(=O)C2C3CCC(O3)C2C(=O)O)sc(C)c1-c1ccc(C)cc1 (stereo not given)	nt	11.2µM*
Cc1onc(-c2ccccc2Cl)c1C(=O)Oc1ccc(Br)cc1	10.0%	6.4%
COc1ccc(C2CCc3cc4c(cc3C2=NO)OCO4)cc1OC (stereo not given)	-9.6%	-28.4%
CCc1nc2c(OCC(=O)c3ccc(F)cc3)cccn2c1N(C)C(=O)c1cccs1	i	-12.6%
COc1ccc(-c2cc([C@H]3[C@H]4C=CC[C@@H](C)[C@@H]4C(=O)N3Cc3ccccc3)ccc2F)cc1OC	?	?
O=C(COc1ccccc1)N(CCc1ccccc1)c1nc(-c2ccc(F)cc2)cs1	i	-5.2%
CN1CCN(NC(=O)c2cn(-c3ccccc3)nc2-c2ccc(OC(F)F)cc2)CC1	-20.9%	-24.0%
CCN(CC)C(=O)c1sc2nc(-c3ccncc3)[nH]c(=O)c2c1C	i	-10.8%
CC(=O)Oc1cccc(C(=O)Nc2cccc(C(=O)Nc3ccccc3C(=O)O)c2)c1	-5.1%	-14.2%
CCC(C(=O)NCCCc1ccccc1)n1nc(C)c2c(C)n(-c3ccccc3)nc2c1=O (stereo not given)	-28.7%	-13.8%
CSCCC(NS(=O)(=O)c1ccc(C)cc1)C(=O)N1CCN(C(C)=O)CC1 (stereo not given)	i	-9.0%
CC(=O)C1CCC2C3CC=C4CC(SC(=N)N)CCC4(C)C3CCC12C (stereo not given)	?	15.8µM*
C=CCn1c(SC/C=C/c2ccccc2)nnc1-c1sc(N)nc1C	nt	-18.7%
CC1CC(C)CN(C(=O)CN2C(=O)NC3(CCCCCC3)C2=O)C1 (stereo not given)	-12.5%	0.3%
COC(=O)c1c(NC(=O)CC2SC(N)=NC2=O)sc2c1CCC(C(C)(C)C)C2 (stereo not given)	-25.5%	?
O=C(Nc1ccc(S(=O)(=O)Nc2ncccn2)cc1)c1cncc(Br)c1	-4.0%	-10.5%
C[C@@H]1O[C@@H](O[C@H]2C[C@@H](O)[C@]3(CO)[C@H]4[C@H](O)C[C@]5(C)[C@@H](C6COC(=O)C6)CC[C@]5(O)[C@@H]4CC[C@]3(O)C2)[C@H](O)[C@H](O)[C@H]1O (stereo not given in full)	1.12µM*	1.12µM*
Cc1cc(-c2nc3cc(F)ccc3s2)ccc1N	?	?
COc1ccc(C(=O)CSc2nc(C)cc(C)n2)cc1[N+](=O)[O-]	i	-18.3%
CC1=C(C(=O)Nc2ccccc2C(F)(F)F)C(c2ccc(C)s2)NC(=S)N1 (stereo not given)	-11.6%	-16.6%
O=C(O)c1ccc2c(c1)C(=O)N(NC(=O)c1ccccc1)C2=O	?	?
COc1ccc2oc(=O)c(-c3cn4ccc(C)cc4n3)cc2c1	i	1.3%
CCCC(=O)N1CCN(c2ccc(NC(=O)C(C)(C)C)cc2)CC1	nt	-8.1%
Cc1cnc(NC(=O)CC2OC(=O)c3ccccc32)s1 (stereo not given)	-5.4%	0.8%
O=[N+]([O-])c1cc(S(=O)(=O)c2ccc(N3CCCCC3)c([N+](=O)[O-])c2)ccc1N1CCCCC1	-21.6%	-15.6%
CN(CC(=O)NCCCN1CCOCC1)S(=O)(=O)c1ccc(F)cc1	-6.1%	-5.0%
c1coc(C2Nc3ccccc3-c3nc4ccccc4n32)c1 (stereo not given)	?	?
COc1ccc(C2CC(=O)c3cc(-c4nc(-c5cccc([N+](=O)[O-])c5)cs4)c(=O)n(-c4ccccc4)c3C2)cc1 (stereo not given)	1.7%	-3.0%
COC(=O)[C@@]12C[C@@H](CC(=O)N3CCOCC3)C(=O)N(Cc3cccc4ccccc34)C1=CCC(C)(C)C2	i	-10.7%
Cc1noc(C)c1COc1ccc(C(=O)OCC(=O)Nc2ccc3c(c2)OCO3)cc1	nt	-5.5%
O=C(NCc1cccnc1)c1cc(C2CCCCN2C(=O)c2ccc3c(c2)CCO3)on1 (stereo not given)	-9.9%	-11.1%
Cc1cccc([C@@H]2[C@@H]3C(=O)N(Cc4ccccc4)C(=O)[C@@H]3[C@]3(Cc4ccc(Cl)cc4)C(=O)N(c4cccc(Br)c4)C(=O)N23)c1	i	-22.4%
COc1ccc(OC)c(C2=Nn3c(nnc3-c3cc(OC)c(OC)c(OC)c3)SC2)c1	-15.7%	?
CCN(CC)S(=O)(=O)c1ccc(Cl)c(C(=O)Nc2cc(C)nn2-c2ccccc2)c1	-20.5%	?
CC(=O)c1ccc(N(C(=O)CNC(=O)c2ccco2)C(C(=O)NC2CCCC2)c2ccc(C)o2)cc1 (stereo not given)	-4.9%	-0.3%
CCC1(C)Nc2ccccc2C(=O)N1O (stereo not given)	-27.4%	-20.3%
CCC[C@@H](CN[C@@H](CNC)C(C)C)NCCCCc1ccccc1	i	?
Cc1cccc(NC(=O)c2ccc(C(=O)c3ccccc3)o2)c1	-7.0%	-6.3%
CN(Cc1ccccc1)C(=O)c1cccc(NC(=O)Cc2ccc(NC(=O)C3CCN(C(=O)C4CC4)CC3)cc2)c1	1.1%	2.6%

# Following part
mol	VACV mCherry inh	VACV Venus inh
COc1cc(NC(=O)Nc2nnc([C@H]3C[C@H](O)[C@@H](CO)O3)s2)cc(OC)c1	5.6%	-3.4%
Cc1ccccc1-n1ncc2c1CC(C)(C)CC2NC(=O)C1=CC(=O)CC(C)(C)O1 (stereo not given)	-20.0%	-10.2%
O=C(COC(=O)/C=C/c1ccc(Cl)cc1Cl)NCCC1=CCCCC1	-0.4%	-0.3%
CCCCn1c(N)c(N(CCC(C)C)C(=O)c2cc(-c3ccco3)nc3ccccc23)c(=O)[nH]c1=O	-14.4%	-28.0%
CN(C(=O)c1cccc(NC(=O)Cc2ccc([N+](=O)[O-])cc2)c1)C1CC1	-17.2%	-20.3%
CCOc1ccc(N(C)C(=O)CCc2nnc3ccc(N4CCOCC4)nn23)cc1	-8.6%[7.34 µM]	-29.4%[7.34 µM]
O=C(CN(Cc1ccc(F)cc1)C(=O)CNS(=O)(=O)c1ccc(F)cc1)NCC1CCCO1 (stereo not given)	i	-5.1%
COC(=O)c1cccc(CSc2nnc(-c3ccco3)n2-c2ccccc2)c1	-1.6%	-12.4%
CCCCN(CCCC)Cc1cc2ccccc2c2c1COC2	nt	?
COCCN1C(=O)c2[nH]nc(-c3ccccc3O)c2C1c1ccc(Cl)c(Cl)c1 (stereo not given)	-28.7%	-24.1%
CC(=O)OCC(CCn1cnc2cnc(N)nc21)COC(C)=O	-9.1%	-3.3%
CC(=O)Nc1ccc2[nH]c(C)cc(=O)c2c1	nt	-10.6%
COc1ccc(C(=O)N2CCN(c3nc4c(OC)cccc4s3)CC2)cc1OC	-5.8%	?
CN(C)C(CNC(=O)Cc1ccc(Br)cc1)c1ccccc1 (stereo not given)	-15.9%	-7.0%
COc1ccc(C(C)(NC(C)=O)c2nc(-c3ccc(F)cc3OC)cs2)cc1 (stereo not given)	-28.7%	-13.9%
CN1C(=O)/C(=C\N2CCc3ccccc32)C(=O)NC1=S	0.1%	32.1%[activator]
COc1ccc(CCN(Cc2cc3cc(C)cc(C)c3nc2Cl)C(=O)C2CC2)cc1	-2.7%	-19.7%
CCc1sc(N(C(=O)Cc2ccccc2)c2cccc(F)c2)nc1-c1ccc(C)cc1	nt	-3.7%
O=C(C1CCC(CNc2nc(=S)[nH]c3ccccc23)CC1)N1CCN(c2ccc(F)cc2)CC1 (stereo not given)	?	?
CCN1C(=O)c2ccccc2Sc2ccc(NC(=O)Nc3cccc([N+](=O)[O-])c3C)cc21	-28.9%	?

# Complete entries from above:
# CC(=O)OCC(CCn1cnc2cnc(N)nc21)COC(C)=O in the list: VACV mCherry inh: -9.1%; VACV Venus inh: -3.3%
# CCOc1ccc(N(C)C(=O)CCc2nnc3ccc(N4CCOCC4)nn23)cc1 in the list: VACV mCherry inh: -8.6%[7.34 µM]; VACV Venus inh: -29.4%[7.34 µM]

# Further compounds follow:
mol	VACV mCherry inh	VACV Venus inh
COc1ccccc1-c1nc(C#N)c(N2CCN(C(=O)c3ccco3)CC2)o1	i	-9.9%
CCOc1ccccc1NC(=O)COC(=O)c1ccccc1SCC(=O)N1CCCC1	-18.6%	-22.9%
CC(=O)Nc1ccc(-c2csc(NNC(=O)c3ccccc3)n2)cc1	?	-18.5%
COC(=O)c1ccc(C)c(NC(=O)CCNC(=O)c2ccc([N+](=O)[O-])cc2)c1	-10.7%	-4.7%
COc1ccc(CCC(C)NC2CCCCCCC2)cc1 (stereo not given)	-15.7%	-15.7%
COc1ccc(Nc2c3c(nc4ccccc24)CCC3)cc1	?	?
Cc1ccc(SCCN2CCC(C(C)(C)C)CCC2=O)cc1 (stereo not given)	-3.3%	-20.6%&-20.6%
COc1ccc(CCNC(=O)c2ccc3c(c2)sc2nc(-c4ccccc4)cn23)cc1OC	-20.5%	-13.3%
COC(=O)c1ccc(COc2cc(C)cc3oc(=O)c4c(c23)CCCC4)o1	-12.0%	-7.0%
Cc1nc2ccc(NC(=O)c3ccc([N+](=O)[O-])cc3[N+](=O)[O-])cc2s1	?	?
CN1CCN(CCCCOc2ccccc2C=O)CC1	-0.5%	-6.2%
COc1ccc(C=NCCc2ccc(OC)c(OC)c2)cc1OC	-13.4%	-0.7%
O=C(Nc1ccc2oc(-c3ccc4ccccc4c3)nc2c1)c1ccc(Cl)c(Cl)c1	?	?
Cn1c(=O)c2c(ncn2Cc2ccccc2)n(C)c1=O	-21.4%	-14.8%
O=C(COc1ccccc1F)Nc1ccc(S(=O)(=O)Nc2nccs2)cc1	i	-4.3%
CCOc1ccc(-n2c(/C=C/c3cccc(F)c3)nc3cc(OC)c(OC)cc3c2=O)cc1	-28.0%	-24.7%
COc1cc(/C=N/NC(=O)c2ccccn2)ccc1OC(=O)c1ccc(Br)cc1	-0.8%	-8.9%
CN(C(=O)c1ccc2c(=O)n3c(nc2c1)CCCCC3)c1cccc(Cl)c1	i	-16.5%
CC(C)CC(COCc1cccc(C(F)(F)F)c1)N1CCN(C(=O)c2cccc(C(F)(F)F)c2)CCC1=O (stereo not given)	i	-28.9%
C/C(=N\NC(=O)C1CC1c1ccccc1)c1ccc(C)s1 (stereo not given)	-15.1%	-9.3%
Cn1cc(CC(=O)NCCCN2CCCC2)c2ccccc21	-10.6%	?
Cc1nnsc1NC(=O)OCc1ccc(Cl)cc1Cl	nt	-12.3%

# Screens as filed in PubChem BioAssay.
